# Screening data as filed in PubChem BioAssay.
# Pol iota inh: qHTS for Inhibitors of Polymerase Iota; Pol iota fluorescent replication assay, 10 min; 390,000 tested, 1% active; Potency, µM (titrated, usually from 115 µM), for the others: top-dose activity, negative = inhibition, most hits filed as inhibitors; DNA polymerase iota (Homo sapiens), Q9UNA4
# Target sequence (Q9UNA4 whole entry, looked up): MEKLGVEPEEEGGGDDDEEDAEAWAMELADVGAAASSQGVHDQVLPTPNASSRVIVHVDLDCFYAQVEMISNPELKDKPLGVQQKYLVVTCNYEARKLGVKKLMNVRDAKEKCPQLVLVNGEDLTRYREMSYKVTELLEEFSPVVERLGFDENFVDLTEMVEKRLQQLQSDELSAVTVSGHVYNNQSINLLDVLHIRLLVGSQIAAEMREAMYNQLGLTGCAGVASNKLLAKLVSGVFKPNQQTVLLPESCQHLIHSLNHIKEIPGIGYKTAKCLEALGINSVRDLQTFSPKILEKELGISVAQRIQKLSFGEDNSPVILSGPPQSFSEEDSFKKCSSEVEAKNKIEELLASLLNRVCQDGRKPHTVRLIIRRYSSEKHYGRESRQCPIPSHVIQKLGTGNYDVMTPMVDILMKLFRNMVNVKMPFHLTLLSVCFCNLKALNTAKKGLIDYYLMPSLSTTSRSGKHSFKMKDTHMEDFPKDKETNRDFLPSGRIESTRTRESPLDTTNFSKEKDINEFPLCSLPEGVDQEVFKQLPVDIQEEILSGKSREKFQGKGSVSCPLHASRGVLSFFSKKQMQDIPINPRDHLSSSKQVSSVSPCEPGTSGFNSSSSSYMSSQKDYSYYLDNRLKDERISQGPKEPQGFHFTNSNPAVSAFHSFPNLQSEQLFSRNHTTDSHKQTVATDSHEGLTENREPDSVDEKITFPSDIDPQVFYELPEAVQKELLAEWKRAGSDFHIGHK
#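 Pol iota at 10 nM preincubated 15 min with compounds at room temperature; reaction started with fluorescent substrate, 50 nM final. Fluorescence read kinetically at 0 and 10 min; buffer-only wells as negative control.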
# Pin1 inhibitor: qHTS Assay to Find Inhibitors of Pin1; 390,000 tested, 0.009% active; Potency, µM (doses to about 115 µM), without a hit: top-dose activity, negative = inhibition, actives largely listed as inhibitors; AID 504891, 2011; Pin1 FP peptide displacement, HiFluor488, 10 min; active = well fitted inhibition curve with a large enough effect in the polarisation, with a control signal flat, not every such curve was filed as active; inconclusive = small, poorly fitted or top-dose-only effect, or effect the other way, or a change in a side signal; inactive = no such curve, though single readings can be large or run the other way; the % refers to the polarisation; note: % is set by controls: 0 for no effect and ±100 for the full control effect
# Target sequence (Q13526 whole entry, looked up): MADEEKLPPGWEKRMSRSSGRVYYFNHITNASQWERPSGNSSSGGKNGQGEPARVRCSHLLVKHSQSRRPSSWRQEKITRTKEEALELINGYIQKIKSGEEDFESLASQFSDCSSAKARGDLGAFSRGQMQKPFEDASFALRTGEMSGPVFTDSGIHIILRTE
# JMJD2A Tudor: qHTS Assay for Inhibitors of JMJD2A-Tudor Domain. 390,000 tested, 4.4% active. AlphaScreen JMJD2A-Tudor / H3K4me3 peptide binding. AID 504339, 2011. Lysine-specific demethylase 4A (Homo sapiens), O75164. Potency, µM (series often up to 114 µM), without a hit: at the highest dose activity change, negative = inhibition, usual class: inhibitors; note: % is set by controls: 0 for no effect and ±100 for the full control effect; nearly all actives have a fitted effect of over 50% in size
# BLM helicase inh: qHTS Assay for Inhibitors of Bloom's syndrome helicase (BLM) | AID 2528, 2010 | RecQ-like DNA helicase BLM (Homo sapiens), P54132 | recombinant BLM DNA unwinding, fluorescence dequenching | Potency, µM (doses to about 56.1 µM), inactives show top-dose activity change, negative = inhibition, hits mostly inhibitors | 350,000 tested, 0.2% active;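 note: plate controls were vehicle for no effect and no enzyme for full effect; nearly all actives have a fitted effect of over 35% in size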
# HP1b chromo inh: HTS for Inhibitors of HP1-beta Chromodomain Interactions with Methylated Histone Tails | Chromobox protein homolog 1 (Homo sapiens), P83916 | AlphaScreen HP1-beta / biotin-H3K9me3 peptide binding | Potency, µM (top dose mostly 114 µM), without a hit: top-dose activity change, negative = inhibition, actives largely listed as inhibitors | 390,000 tested, 0.56% active; note: nearly all actives have a fitted effect of over 70% in size; inactives centre near 23
# Target sequence (P83916 whole entry, looked up): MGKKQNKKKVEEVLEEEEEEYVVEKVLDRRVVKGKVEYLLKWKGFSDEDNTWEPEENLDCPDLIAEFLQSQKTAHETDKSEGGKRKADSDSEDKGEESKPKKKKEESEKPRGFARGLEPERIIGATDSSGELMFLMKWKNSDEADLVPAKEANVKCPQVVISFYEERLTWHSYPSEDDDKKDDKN
#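 AlphaScreen: HP1-beta (50 nM) preformed 30 min with biotin-H3(1-18)K9me3 peptide (50 nM) in PBS pH 7.4, 0.01% Tween-20. Compound added for 30 min at RT, then streptavidin donor/nickel chelate acceptor beads (10 ug/mL) for 30 min.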
# GLS inh: qHTS for Inhibitors of Glutaminase (GLS); GLS enzymatic activity, qHTS titration; Potency, µM (series often up to 45.5 µM), without a hit: top-dose activity change, negative = inhibition, usual class: inhibitors; 410,000 tested, 0.21% active; AID 624170, 2012; note: % is set by controls: 0 for no effect and ±100 for the full control effect
#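 hKGA in 45 mM KH2PO4 (pH 8.2), 0.02% Tween-20 with compound, then 1mM L-Glutamine (stock as added) plus glutamate oxidase/HRP/Amplex red coupling mix. Fluorescence read initially and after 30 min at RT; signal change reflects glutamate formation.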
# G9a block: qHTS Assay for Inhibitors of Histone Lysine Methyltransferase G9a; Histone-lysine N-methyltransferase EHMT2 (Homo sapiens), Q96KQ7; G9a H3K9 monomethylation, AlphaScreen, 2 h; Potency, µM (top dose mostly 102 µM), for the others: top-dose activity, negative = inhibition, actives largely listed as inhibitors; 350,000 tested, 8.8% active; AID 504332, 2011; note: % is set by controls: 0 for no effect and ±100 for the full control effect; nearly all actives have a fitted effect of over 75% in size
#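 AlphaScreen detection with an anti-monomethyl H3K9 antibody quantified product after a 2 h room-temperature reaction containing 500 nM biotinylated H3K9 peptide, 20 µM SAM and 20 nM enzyme, which had been preincubated 15 min with compound.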
# Tb PGK inh: qHTS Assay to Find Inhibitors of Phosphoglycerate Kinase; AID 602233, 2012; Phosphoglycerate kinase, glycosomal (Trypanosoma brucei brucei), P07378; PGK/GAPDH coupled, Kinase-Glo luminescence, 60 min; Potency, µM (top dose mostly 57.5 µM), inactives show at the top dose activity change, negative = inhibition, usual class: inhibitors; 380,000 tested, 0.043% active; note: % is set by controls: 0 for no effect and ±100 for the full control effect; nearly all actives have a fitted effect of over 60% in size
#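 Luminescent ATP detection (Kinase-Glo Plus) follows a 60-minute room-temperature incubation, with wells lacking PGK as controls. Buffer: 100 mM TEA (pH 7.6), 5 mM MgCl2, 0.01% Tween-20. Coupling enzyme GAPDH (100 nM final) supplies unstable 1,3-BPG in-well.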
# Numbers without * were called inactive; i = inactive; ? = inconclusive; · = no result given; [ ] = remark or other dose. Unless noted, calls come from the whole dose curve; as a rule, active = well fitted curve in the direction sought with a large enough effect; inconclusive = small, poorly fitted or top-dose-only effect, or another doubt; inactive = no such curve, though single readings can be large; an effect the other way counts as inactive or inconclusive. Potency is the fitted concentration of half-maximal effect. Not all compounds are listed (hit frequency here may not be typical).
SMILES,Pol iota inh,Pin1 inhibitor,JMJD2A Tudor,BLM helicase inh,HP1b chromo inh,GLS inh,G9a block,Tb PGK inh
Cc1cc2c3c(c1)C(C)CC(C)(C)N3C(=O)C2=O (configuration not stated),61%[activator],0%,-32%,-8%,?,6%,·,3%
CCc1ccccc1N1CC(C(=O)Nc2cc(S(=O)(=O)N3CCCC3)ccc2Cl)CC1=O (configuration not stated),50µM*,-7%,?,·,-26%,2%,-2%[2.33 µM],-4%
O=C1Nc2cc3c(cc2C1=O)sc1ccccc13,32µM*,?,?,-16%,-18%,-32%,40µM*,-9%
N#CC1=C(S)N=C(N)C(c2nc(-c3ccccc3)cs2)C12CCCCC2 (configuration not stated),51%[activator],?,?,-14%,-29%,4%,-23%[59 µM],-6%
O=C1C2CC=CCC2C(=O)N1c1ccc(NCCc2cccc(F)c2)c([N+](=O)[O-])c1 (configuration not stated),10%,-1%,?,1%,?,-5%,45µM*,-2%
Cc1cccc(OCc2nc(C#N)c(NCc3ccc4c(c3)OCO4)o2)c1,?,75%[activator],-11%[11.4 µM],-1%,-25%,0%,35µM*,i
Cc1cc(C)c(NC(=O)C2CCN(C(=O)N3CC(C)Oc4ccc(Cl)cc43)CC2)c(C)c1 (configuration not stated),23%,6%,?,-11%,?,6%,11µM*,-4%
CCN(CC)c1ccc(/C=N/NC(=O)CNC(=O)/C=C/c2ccco2)cc1,?,?,?,-3%,-28%,32%[activator],?,6%
O=C(O)c1csc(Cc2ccccc2)n1,22%,-2%,?,-1%,28%,?,?,2%
COc1nc(N(c2ccccc2)c2ccccc2)nc(-n2ccnc2)n1,4%,-5%,?,1%,13%,-6%,6%[59 µM],11%
Cc1ccc(C)c(S(=O)(=O)N/N=C2/CCCc3ccccc32)c1,17%,1%,-1%,-6%,31%,5%,32µM*,-8%
Cc1ccc(NC(=O)CN2C(=O)CCn3nc(-c4cccn4C)cc32)c(Cl)c1,0%,6%,?,-3%,-6%[57 µM],-10%,-32%[59 µM],12%
CN(c1ccccc1)S(=O)(=O)c1cccc(NC(=O)CN2CCCc3ccccc32)c1,17%,71%[activator],?,-9%,-1%,15%,40µM*,4%
Cc1cccc(-n2ccnc2SCC(=O)Nc2ccc3c(c2)OCO3)c1,0%,-11%,?,-2%,-12%[57 µM],-8%,?,i
O=C(N/N=C/c1ccc[nH]1)c1cc(-c2cccs2)nc2ccccc12,94%[activator],1%,?,-13%,?,-12%,?,-3%
c1ccc(-c2nnc(-c3ccncc3)nc2-c2ccccc2)cc1,48%[activator],0%,-31%,-9%,-4%,9%,?,8%
CCn1c(CN2c3ccccc3Sc3ccccc32)n[nH]c1=S,?,-11%,?,-13%,-38%,?,·,1%
CCOc1ccc2c(c1)NC(c1cccs1)=NC(c1ccc(F)cc1)=N2,-12%,1%,?,2%,26%,12%,?,11%
Cn1cccc1Cc1nnc(SCC(=O)N2CCCc3ccccc32)n1-c1ccc(F)cc1,-20%,-3%,-31%,-4%,11%,-2%,50µM*,i
O=C(N/N=C/c1cc(Br)c(Br)o1)C(O)c1ccccc1 (configuration not stated),?,11%,?,-16%,-15%,-2%,6.3µM*,-12%
Cc1cccc(/C=N/NC(=O)Cn2nnnc2N)n1,-13%[58.9 µM],1%,-20%,-1%,17%,1%,·,9%
CCc1nnc(SC(CC)C(=O)Nc2ccc(OC)c(Cl)c2)c2cc3occc3n12 (configuration not stated),4%,22%,-28%,-4%,-16%,0%,?,-9%
Cc1c(C(=O)NC(=S)Nc2ccccc2N2CCCC2)cccc1[N+](=O)[O-],27%,2%,?,-23%,?,34%,14µM*,-6%
C=CCNC(=O)N[C@@H](CCSC)C(=O)OC,20%,-3%,-9%,1%,12%,14%,-9%,3%
C=C(C)C1CC=C(C)/C(=N/Nc2ccccc2[N+](=O)[O-])C1 (configuration not stated),6%,-8%,-36%,0%,-25%,-12%,10µM*,0%
COc1cc(C(C[N+](=O)[O-])c2c(-c3ccccc3)cc3ccccn23)cc(OC)c1OC (configuration not stated),31%[activator],2%,?,0%,-11%,11%,35µM*,-4%
C=CCn1c(=O)/c(=C2/Sc3cc(OC)ccc3N2C)s/c1=C1\C(=O)N(CC)C(=S)N1C,·,·,·,-2%,·,·,?,·
COc1ccc(-c2ocnc2C(=O)N2CCN(C(c3ccccc3)c3ccccc3)CC2)cc1,68%[activator],13%,-26%,-12%,12%,-11%,?,i
CN1CCN(c2nc(-c3ccc(C(C)(C)C)cc3)nc3ccccc23)CC1,?,-7%,?,-7%,-6%,2%,32µM*,·
CCc1cccc(C)c1Nc1c(-c2ccc(F)cc2)nc2sccn12,30%,-3%,?,-16%,?,6%,?,-8%
NC(=O)CC(NC(=O)Cc1ccc(Br)cc1)c1ccc(NC2CC3CCC2C3)c([N+](=O)[O-])c1 (configuration not stated),13%,2%,?,-8%,?,0%,·,-3%
COc1ccccc1OCc1nc(C#N)c(N2CC(C)CC(C)C2)o1 (configuration not stated),-15%,9%,?,-7%,?,-1%,45µM*,-7%
S=C(NC1CCCCC1)N1CCOCCOCCN(C(=S)NC2CCCCC2)CCOCC1,48%[activator],3%,-10%,-6%,17%,0%,?,-5%
CNC(=O)/C(C#N)=C/c1ccc(-c2ccc(OC)cc2[N+](=O)[O-])o1,22%,?,-8%,0%,37%,14%,?,i
N#Cc1nc(-c2ccco2)oc1NCc1ccccc1Cl,98%[activator],-10%,?,-6%,?,?,·,-5%
Cc1ccc(OCc2cc(=O)n3c4c(sc3n2)CCCC4)c(C)c1,38%[activator],7%,-5%,2%,61%[activator],-2%,-4%[59 µM],1%
CCCNC(=O)c1ccc2c(c1)N=C(C)c1c(C)ccc(C)c1S2,10%,-5%,-32%,-8%,8%,-12%,-27%[59 µM],-5%
CCCOc1ccc(C2=NNC(c3cccs3)=Nc3ccc(OC)cc32)cc1,2%,12%,?,-9%,-14%,16%,?,1%
Cc1nn(-c2ccc(C(=O)O)cc2)c(=O)c2ccccc12,-1%,-1%,-31%,0%,46%[activator],-5%,?,-9%
CCN(CC)S(=O)(=O)c1ccc2oc(C(=O)NCc3ccc(F)cc3)c(C)c2c1,9%,9%,-13%,-11%,31%,2%,-3%[59 µM],5%
CN(C)CC(C)(C)NS(=O)(=O)c1ccc(Cl)cc1,-4%,4%,-15%,-4%,8%,45%[activator],-31%,-8%
CC(NC(=O)Nc1ccccc1C(F)(F)F)C1CCCO1 (configuration not stated),-5%[58.9 µM],-3%,-7%,-1%,16%,6%,8%[59 µM],i
CCc1cc(-c2n[nH]c(C)c2-c2nc3ccccc3s2)c(O)cc1OCC(=O)NN,118%[activator],-6%,-32%,-9%,13%,-16%,?,i
COCCCNC(=O)CSc1nc2nc(C)c(Cc3ccccc3Cl)c(C)n2n1,14%,2%,-13%,1%,42%[activator],-6%,-10%[59 µM],8%
CCn1c(SCC(=O)Nc2nccs2)nnc1-c1ccccn1,0%,0%,?,1%,22%,2%,·,-1%
Cc1ccc(-n2cc(-c3ccccc3)c3c(=O)[nH]cnc32)cc1,-5%,7%,-26%,-12%,5%,11%,-10%[59 µM],-13%
CCOC(=O)C1=C(N2CCCCC2)c2cc3c(n2C1=O)CCCC3,7%,6%,-14%[57.1 µM],-1%,-21%,0%,-47%[59 µM],7%
O=C1/C(=C/c2ccco2)CCC1C1CCCC1 (configuration not stated),27%,4%,8%,-3%,42%,-2%,?,-3%

# 2 compounds from above, limited to Pol iota inh.
canonical_smiles | Pol iota inh
CCOC(=O)C1=C(N2CCCCC2)c2cc3c(n2C1=O)CCCC3 | 7%
O=C1/C(=C/c2ccco2)CCC1C1CCCC1 (configuration not stated) | 27%

# Continued:
SMILES,Pol iota inh,Pin1 inhibitor,JMJD2A Tudor,BLM helicase inh,HP1b chromo inh,GLS inh,G9a block,Tb PGK inh
O=S(=O)(NC1CCCCCC1)c1cccc2cccnc12,60%,1%,-4%,-1%,14%,-7%,3%,-10%
CCC(C)(C)n1nnnc1C(c1cc2cccc(C)c2[nH]c1=O)N1CCN(C(=O)c2ccco2)CC1 (configuration not stated),8%,2%,-14%,-1%,19%,3%,?,21%
NC(=O)C1CCN(C(=O)COc2cccc3ccccc23)CC1,-24%,-8%,-14%,-1%,3%,-6%,-13%,-13%[11.5 µM]
CC(=O)CSc1nc(-c2ccccc2)c(-c2ccccc2)o1,-16%,-1%,39%[activator],-5%,-5%,3%,·,-1%
Cc1nc(N2CCCC2)ncc1C(=O)Nc1ccccc1,-2%,1%,-4%,2%,24%,-2%,15%[59 µM],·
Cc1ccc(-n2nc(-c3ccccc3)cc2Nc2ccccc2N)cc1,-10%,-1%,?,-8%,-27%,10%,?,-10%
Cc1cccc2c1NC1(CCCC1)CC2C (configuration not stated),?,-1%,?,4%,-1%,-1%,50µM*,-6%
Cc1ccc(NC(=O)c2ccc(C(C)(C)C)cc2)cc1[N+](=O)[O-],23%,7%,?,-8%,?,1%,?,2%
Cc1ccc(OCCCC(=O)Nc2ccc(S(N)(=O)=O)cc2)cc1,72%[activator],10%,-2%,-9%,29%,-23%,-1%,-2%
COc1cc(OC)cc(C(=O)NC(=S)Nc2ccc3c4c(cccc24)CC3)c1,-9%,2%,-34%,-6%,-22%,7%,?,i
CCN1CCN(C(=O)C2CC(c3ccc(F)cc3)=NO2)CC1 (configuration not stated),9%,0%,10%,0%,35%,-3%,?,1%
Fc1ccc(Cn2cc(C(=S)N3CCOCC3)c3ccccc32)cc1,-11%,0%,?,-13%,-13%,1%,?,-2%
O=C1C2CC=CCC2C(=O)N1c1ccc(NCCc2ccccc2)c([N+](=O)[O-])c1 (configuration not stated),-3%,-10%,?,-4%,-36%,2%,?,0%
C/C(=N/Nc1nc(C)c(C)s1)c1cccc([N+](=O)[O-])c1,10%,-5%,?,-6%,-6%,8%,35µM*,2%
c1ccc(CSC2=NNC(c3ccccn3)S2)cc1 (configuration not stated),72%[activator],-1%,?,0%,11%,-14%,18%,i
O=C(Nc1cc(Cl)ccc1N1CCCC1)C1=NN(c2ccccc2)C(=O)CC1,-2%,-4%,?,-9%,-23%[57 µM],17%,45µM*,i
